# Tg IFNy HTS: blocks Toxoplasma gondii growth in the presence of IFN-gamma. Toxoplasma gondii growth in IFN-gamma-treated host cells; active compounds read low; reference of the scale not given here. activity change, negative = inhibition, %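 (about 20 µM by stock and volumes)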. AID 1259416. 3.8% of 69,000 active;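 active = below -70%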;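 also: host cells are HeLa cells infected with Toxoplasma gondii; parasite growth read as luciferase light; one replicate is shown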
# * = called active by the depositor; i = inactive; & = joins results of further samples. An excerpt. The share of hits here may be higher or lower than overall.
SMILES,Tg IFNy HTS
CCOc1ccc(C(=O)N2CCN(S(=O)(=O)c3cc4c5c(c3)CCN5C(=O)CC4)CC2)cc1,19
Cc1cccc(CN2C[C@H]3CN(C(=O)NC4CC4)C[C@H]3C2=O)c1,4
CCn1cc(-c2cc(C(=O)Nc3nc4cc(Cl)ccc4s3)no2)cn1,-41
COCC1CN(C(=O)Cc2ccsc2)Cc2nccn2C1 (stereo unspecified),-39
COCC(=O)N1CC[C@@H]2[C@H]1CCN2c1nncs1,2
Cc1nc(C)c(S(=O)(=O)N2CC(n3nc(-c4ccccc4)ccc3=O)C2)s1,-26
CCCCc1nc(Cl)c(CN2CCCC(c3n[nH]c(=O)n3CC)C2)[nH]1 (stereo unspecified),2
CN(C)C(=O)c1ccc2nnc3ncn(Cc4ccccc4)c3c2c1,-46
Cc1c(C(C)NC(=O)c2cnc(-c3ccc(Cl)cc3)nc2)cnn1C (stereo unspecified),-20
CC(=O)Nc1cccc(-n2ccnc2-c2ccnc(C(C)C)n2)c1,-61
O=C(CN1C(=O)CCc2cc(S(=O)(=O)N3CCCCC3)ccc21)NCCc1ccc(Cl)cc1,-45
CCN(C[C@@H]1[C@@H](c2ccccc2)[C@@H](CO)N1C(=O)COC)S(C)(=O)=O,15
CC(C)NC(=O)N1CCC2(CCC(=O)N2CCN2CCCC2)CC1,-9
Cc1ccccc1C1(O)CCN(C(=O)COc2cccnc2)C1 (stereo unspecified),51
O=C(Nc1nc(-c2ccc3c(c2)CCCO3)cs1)c1ccc2oc(=O)[nH]c2c1,9

# Among those listed so far, these have an NH in an aromatic ring:
SMILES,Tg IFNy HTS
CCCCc1nc(Cl)c(CN2CCCC(c3n[nH]c(=O)n3CC)C2)[nH]1 (stereo unspecified),2
O=C(Nc1nc(-c2ccc3c(c2)CCCO3)cs1)c1ccc2oc(=O)[nH]c2c1,9

# (list continues)
SMILES,Tg IFNy HTS
CC(C)(O)C#Cc1ccc(CN2CCCN(C(=O)c3ccco3)CC2)s1,-8
CNC(=O)C1CN(C(=O)Cc2c[nH]c3ccccc23)CC12CCCC2 (stereo unspecified),109
S=c1[nH]cc(-c2ccc(Cl)cc2)n1C1CCCC1,-22
COCC(=O)Nc1cccc(-c2ccccc2Cl)c1,7
CCc1ccccc1NC(=O)C(=O)N1CCOC2(CNCCOC2)C1 (stereo unspecified),-23
Cc1c(-c2nccn2Cc2cc(C(C)C)no2)c(=O)n(-c2ccccc2)n1C,-32
Cc1cccc(Nc2ccc(C3CCCN(CC(=O)Nc4nc(C)c(C)s4)C3)nc2)n1 (stereo unspecified),-4
CCOC(=O)N1CCC(NC(=O)C2CC(=O)N(CC(C)C)C2)CC1 (stereo unspecified),3
O=C(Nc1ccc2nccnc2c1)c1cccc(CN2CCCC(O)C2)c1 (stereo unspecified),3
CC(C)n1c(C(=O)NCCN(C)C)nc2c1CCN(c1ncccn1)C2,5
Cc1ccccc1OCC1CCCN(C(=O)Cc2c[nH]c(=O)[nH]c2=O)C1 (stereo unspecified),4
Cn1ccnc1SCCn1ccnc1-c1ccc(Cl)s1,3
CCOC(=O)N1CCC2(CC1)N=C(c1cc(Cl)ccc1O)CC(c1ccccc1O)N2 (stereo unspecified),-63
CC(=O)NCC(=O)N1CC2(CCCC2)c2cc(-c3ccc(C(N)=O)cc3)ccc21,-1
O=C(Nc1ncn[nH]1)C(F)(F)C(F)F,2

# Ordered by length of the SMILES (largest number first): some entries from above
SMILES,Tg IFNy HTS
CC(=O)NCC(=O)N1CC2(CCCC2)c2cc(-c3ccc(C(N)=O)cc3)ccc21,-1
CCOC(=O)N1CCC2(CC1)N=C(c1cc(Cl)ccc1O)CC(c1ccccc1O)N2 (stereo unspecified),-63
Cc1c(-c2nccn2Cc2cc(C(C)C)no2)c(=O)n(-c2ccccc2)n1C,-32
Cc1ccccc1OCC1CCCN(C(=O)Cc2c[nH]c(=O)[nH]c2=O)C1 (stereo unspecified),4
CNC(=O)C1CN(C(=O)Cc2c[nH]c3ccccc23)CC12CCCC2 (stereo unspecified),109
CC(C)n1c(C(=O)NCCN(C)C)nc2c1CCN(c1ncccn1)C2,5
O=C(Nc1ccc2nccnc2c1)c1cccc(CN2CCCC(O)C2)c1 (stereo unspecified),3
CCc1ccccc1NC(=O)C(=O)N1CCOC2(CNCCOC2)C1 (stereo unspecified),-23
Cc1ccccc1C1(O)CCN(C(=O)COc2cccnc2)C1 (stereo unspecified),51
S=c1[nH]cc(-c2ccc(Cl)cc2)n1C1CCCC1,-22
Cn1ccnc1SCCn1ccnc1-c1ccc(Cl)s1,3
O=C(Nc1ncn[nH]1)C(F)(F)C(F)F,2

# Other structures:
SMILES,Tg IFNy HTS
Cc1c(C(=O)N(Cc2ccncc2)C2CCN(C)CC2)[nH]c2ccc(F)cc12,2
CO[C@H]1CN(C(=O)c2cc(C)nc3c(C)c(C)ccc23)CC[C@H]1N,-6
N[C@@H]1CC[C@@H](NS(=O)(=O)N2CCOCC2)C1,-7
COc1ccc(C(Nc2ccc(C)cc2)C(=O)NC2CCCCC2)cc1 (stereo unspecified),58
C[C@H](CO)N1C[C@H](C)[C@@H](CN(C)C(=O)Nc2cccc3ccccc23)OCc2cn(nn2)CCCC1=O,i
Cc1noc(-c2cc(=O)n(CC(=O)NCc3ccc4c(c3)OCO4)c3ccccc23)n1,69
Cc1noc(C)c1S(=O)(=O)N(C)C[C@H]1OCc2ccccc2-c2ccccc2C(=O)N([C@H](C)CO)C[C@H]1C,-10
Cc1cc(C)c(C(=O)N2CCN(C)C(C(=O)O)C2)c(=O)[nH]1 (stereo unspecified),3
CCCC1CCC(c2ccc(-c3ccc(CC)cn3)cc2F)CC1 (stereo unspecified),-76*
C[C@@H]1CN([C@@H](C)CO)C(=O)CCCn2cc(nn2)CO[C@@H]1CN(C)C(=O)NC1CCCCC1,98
CCCCn1ncc2c1NC(=O)CC2c1cn[nH]c1C1CCCCC1 (stereo unspecified),-15
C[C@H]1CN([C@@H](C)CO)C(=O)c2cc(-c3cccc(C#N)c3)cnc2O[C@@H]1CN(C)C(=O)C1CCOCC1,-7
CC1(C(=O)NCc2ccc(F)cc2F)CCN(C(=O)c2ccc(C(C)(C)C)cc2)CC1,-91*
COc1ccc2c(c1)c(C(=O)Cn1c(C3CCOCC3)cc3cccnc31)c(C)n2C,153
CCN1C(=O)N(C2Cc3ccccc3C2)C(=O)C12CCN(Cc1cccn1-c1cccnc1)CC2,21
Cc1cc2oc(=O)cc(C)c2cc1NC(=O)COCC(F)(F)C(F)F,4
CCc1c(C)nc2[nH]nc(NC(=O)C(F)(F)F)n2c1=O,7
CN(Cc1cccnc1)C1COC2(CCN(Cc3cccs3)CC2)C1 (stereo unspecified),2
CCn1c(=S)sc2nc(C)sc21,-5
COc1ccc(NC(=O)Cn2c(=O)cc(C(=O)N3CCOCC3)c3ccccc32)cc1OC,3
CC(=O)Oc1cc(C(C)C)c(OCCN(C)C)cc1C,14&1
CCOC(=O)c1nn(CCc2ccc(OC)cc2)c2c1CN(C(=O)C1COc3ccccc3C1)CC2 (stereo unspecified),4
COC(=O)c1ccc(CN(C)Cc2cc(-c3ccncc3)no2)cc1,-5
CN1[C@H]2CC[C@@H]1CN(C(=O)c1cccc(CC3CCNCC3)c1)CC2,3
O=c1[nH]nc(C2CCC2)n1CCc1ccccc1F,4
C#CCOc1ccc(C2SC(C)=Nc3c2c(C)nn3-c2ccc(OC)cc2)cc1OC (stereo unspecified),189
CCc1ccccc1NC(=O)c1nnn(Cc2nc(-c3ccccc3)oc2C)c1C,76
COc1ccc(-c2c(C)[nH]c(=O)[nH]c2=O)c2ccc(C)nc12,4
Cc1ccc(Cc2c(C)[nH]c3nc4ccccc4n3c2=O)cc1,29
C/C=C/c1ccc([C@H]2[C@H](CO)N(S(C)(=O)=O)[C@H]2CNCC2CCC2)cc1,-23
COCC1CN(C(=O)c2cc(C)no2)Cc2cncn2C1 (stereo unspecified),-56
COC1CCC(C(=O)N2CCN(C)C(=O)C2Cc2cccc(-c3ccccc3C)c2)CC1 (stereo unspecified),5
Cc1nc(C(C)C)sc1C(=O)NCC1CCN(c2cnn(C)c(=O)c2)C1 (stereo unspecified),3
CN1CCC(N(Cc2ccncc2)Cc2cncn2C)CC1,4
COc1cccc2c1OCC(C(=O)N1CCc3nc(C4CCCN4)ncc3C1)C2 (stereo unspecified),0
O=C(CC1N=C2c3ccccc3N=C(SCc3ccc(F)cc3)N2C1=O)NCc1ccc2c(c1)OCO2 (stereo unspecified),-21
CCn1c(=O)c(-c2nc(-c3ccc(OCC(C)C)cc3)no2)c(O)c2ccccc21,-10
CSc1nn(CSc2c(Cl)cccc2Cl)c(=S)s1,-43
NS(=O)(=O)c1ccc(CCC(=O)N[C@@H]2CCC(=O)N[C@H]2c2cccs2)cc1,54
COc1ccc(-c2oc3ccccc3c(=O)c2OC)cc1,60
O=C(Cn1[nH]c(=O)ccc1=O)N1CCCN(Cc2cccs2)CC1,6
CN(C)c1nc2c(cc1C(=O)N1CCCC1)CCN(Cc1ccc(F)cc1)CC2,-5
Cc1ccc(C)n1CCn1c(C)ccc1C,-23
CC(C)c1nccn1CCCNC(=O)C1(N)CC1,-51
Cc1cc(C)c(NC(=O)c2nnn(Cc3nc(-c4cccc(Cl)c4)oc3C)c2C)c(C)c1,56
C[C@H]1CN([C@@H](C)CO)C(=O)c2cc(NC(=O)Nc3cccc4ccccc34)ccc2O[C@H]1CN(C)S(=O)(=O)c1cccs1,22
Cc1ccc(S(=O)(=O)Nc2ccccc2-c2nc(-c3ccc(Cl)cc3)no2)cc1,40
Cc1ccc(Cl)cc1NC(=O)c1nnn(Cc2nc(-c3ccc(Cl)cc3)oc2C)c1C,226
COc1ccc(CN2CC3(COC(C(=O)NCc4cccc(OC)c4)C3)c3ccccc32)cc1 (stereo unspecified),6
O=C(N[C@@H]1C=C[C@H](CC(=O)N2CCN(c3ccccc3)CC2)O[C@@H]1CO)c1ccccc1,-4
COc1cccc(-c2ccccc2[C@H]2[C@@H](C#N)N(C(=O)c3ccccn3)[C@@H]2CO)c1,-70
CCn1c(C2CCN(C(=O)NC(C)(C)CC(C)(C)C)CC2)nn(C)c1=O,44
O=C(c1ccco1)N1CCOC2CC(COCc3ccccn3)CC21 (stereo unspecified),9
CC(C)(C)[S@@](=O)N1Cc2cc(C(=O)NC3CCC3)nc(-c3cccc(-c4ccccc4F)c3)c2[C@H]1CCO,-68
CCOc1ccc(CNC(=O)c2ccc(-c3nc(CN4CCc5ccccc54)c(C)o3)cc2)cc1OC,-70
CC(OC(=O)c1snc(C(=O)NC2CCCCC2)c1N)C(=O)NC1CCCCC1 (stereo unspecified),-24
NC(=O)OCC(COC(N)=O)c1ccccc1,0&17&10&28
OC[C@@H]1[C@H]2c3ccccc3NC[C@H]2N1CC1CCOCC1,-1
CC(C)NC(=O)[C@@H]1C[C@@H]2OCC[C@@H]2N(Cc2ccoc2)C1,3
CC(C)CN1CC(C(=O)NCc2cnn3ccccc23)CC1=O (stereo unspecified),-58

# Continued:
SMILES,Tg IFNy HTS
COc1ccc(-c2nc(Cn3nnc(-c4nc(-c5ccncc5)no4)c3C)c(C)o2)cc1,4
COc1cccc(-c2nc3c(s2)CN(S(=O)(=O)c2ccc(CC(C)C)cc2)CC3)c1,-17
CCOC(=O)c1ccc(NC(=S)N2CCC(C(N)=O)CC2)cc1,33
CCN(CC)C(=O)c1nc2c(s1)CCN(C(=O)c1cnc(C)cn1)CC2,228
CC1CCN(S(=O)(=O)c2ccc3c(c2)CCC(=O)N3CC(=O)NCc2ccccc2Cl)CC1,-50
Cn1cccc1C(=O)N1C[C@H]2CN(Cc3cccc(F)c3)C[C@H]2C1,-1
CCOc1ccccc1Nc1nc(-c2nnc(-c3cccc(C)c3)o2)nc2ccccc12,-51
Cc1cc(C)n(C2CCN(C(=O)c3cc(-c4cccn4C)n[nH]3)C2)n1 (stereo unspecified),7
CCCc1cc(C2CCCN2C(=O)Cn2nc(C(F)(F)F)cc2C)no1 (stereo unspecified),1
O=C(O)c1ccc(-c2cccc(-n3cccn3)c2)o1,-45
COCCN(Cc1cccc2ccccc12)C(=O)c1cn(-c2ccccc2)nn1,-18
CCOCC(=O)N1CCn2c(COc3cccnc3)cnc2C1C (stereo unspecified),14
CO[C@@H]1CN(C)C(=O)c2ccc(NC(=O)Nc3cc(F)ccc3F)cc2OC[C@@H](C)N(C(=O)c2ccccn2)C[C@H]1C,23
CC(C)(C)N1CC(C(=O)NCCOc2ccc(-c3ccccc3)cc2)CC1=O (stereo unspecified),-35
Cn1cccc1C(=O)N1CCCC2(COCCN(c3ccccc3)C2)C1 (stereo unspecified),8
Cc1cccc(CN2C[C@H](N(C)Cc3ccco3)C3OCCCC32)n1 (stereo partly specified),-40
COCCN(C)C(=O)c1cc(-c2cnc(Nc3ccccc3)nc2)cn1C,-24
Cc1cc(C)c(Cn2nc(C(C)(C)C)cc2C(=O)Nc2ccc3c(c2)OCO3)c(C)c1,-99*
CCn1c(CC2CCNCC2)nn(Cc2cc(-c3ccccn3)no2)c1=O,3
O=C(c1ccoc1)N1CCC2O[C@H](COCc3ccccn3)CCC21 (stereo partly specified),-1
CC(C)c1cc(C(=O)N(Cc2ccncc2)C[C@@H]2CCC(=O)N2)n(C)n1,-7
Cc1noc(C)c1NC(=O)Nc1ccc2c(c1)C(=O)N([C@@H](C)CO)C[C@@H](C)[C@@H](CN(C)S(=O)(=O)c1cccs1)OCCCC[C@@H](C)O2,3
CC(=O)Nc1cc(=O)[nH]c(-c2ccccn2)n1,0
COC1C2CCC1N(S(=O)(=O)c1cccs1)C2 (stereo unspecified),-77*
COc1ccc(S(=O)(=O)NCCc2sc(-c3ccc(C)cc3)nc2C)cc1,0
Cc1ccsc1C(CNC1CCN(C(=O)c2ccccc2)CC1)N(C)C (stereo unspecified),-10
COc1cccc(CNC2=NCCNC23CCN(S(=O)(=O)c2cc(C)c(C)cc2C)CC3)c1,-49
COc1cc(NC(=O)N[C@@H](Cc2ccccc2)C(=O)O)cc(OC)c1,-32
CCc1noc(CN(CC)C(=O)[C@H]2Cc3ccccc3CN2)n1,52
